# WNV NS2B-NS3 inh – blocks West Nile virus NS2B-NS3 protease activity; P06935; WNV NS2B-NS3 protease, fluorogenic substrate Ex360/Em465; active compounds read low; z-score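 (tested at a level between 10 and 100 µM)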; actives 0.18% (n = 65,000); AID 577;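 active = z-score at -3 or under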;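 note: score is relative to mean and spread of the compound wells of a plate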
# Target sequence (P06935 1371-1501 limits assumed): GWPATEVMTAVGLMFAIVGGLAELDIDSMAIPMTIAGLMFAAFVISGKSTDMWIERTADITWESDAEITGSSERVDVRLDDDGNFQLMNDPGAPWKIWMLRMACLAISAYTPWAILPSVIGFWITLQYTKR
# Target sequence (P06935 1502-1679 limits assumed): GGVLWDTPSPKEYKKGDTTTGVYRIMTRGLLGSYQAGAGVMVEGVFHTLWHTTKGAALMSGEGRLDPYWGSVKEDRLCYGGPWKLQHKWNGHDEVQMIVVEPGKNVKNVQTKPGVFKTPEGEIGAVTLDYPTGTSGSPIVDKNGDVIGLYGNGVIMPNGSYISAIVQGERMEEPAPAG
# MT1-MMP promoter – MT1-MMP gene expression reporter suppression – cell-based, luciferase reporter, luminescence (AID 618). MT1-MMP promoter luciferase reporter cells, luminescence. calls from a first round at 10 µM; hits with a dose series show EC50 in µM. actives 0.62% (n = 87,000);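 active = over half of the reporter light lost at 10 µM or EC50 under 50 µM; inactive = the rest and hits that failed the dose series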;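 note: actives suppress MT1-MMP promoter-driven transcription so potencies describe inhibitors; HT1080 fibrosarcoma cells; overnight exposure; toxic or luciferase-blocking compounds were not removed from the actives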
# Hsc70 – small molecules displacing fluorescent ligand from Hsc70 – biochemical, fluorescence polarization, primary screen (AID 568); Hsc70 fluorescence polarization, probe displacement; higher % means a stronger effect; strong numbers were not always called active; displacement, % at 20 µM; hits with a dose series show IC50 in µM; 83,000 tested, under 10 active;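 active = displacement above 50% without optical interference and an IC50 on retest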;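 note: ATPase domain with a fluorescein-tagged ATP probe; 0% = vehicle and 100% = excess ADP; read after one hour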
# * = called active by the depositor; i = inactive; nt = no result given. Some of the compounds tested; count on the stated rates, not on these rows.
item	compound	WNV NS2B-NS3 inh	MT1-MMP promoter	Hsc70
1	CCCCC(C(=O)O)C(C)CC(=O)Nc1ccn(-c2ccccc2)n1 (stereo not given)	0.3	i	-3.5%
2	O=c1c2c3c(sc2n(CCN2CCCCC2)c(=O)n1Cc1ccco1)CCCCC3	nt	i	7.2%
3	N#C/C(=C\Nc1ccc2c(c1)OCCO2)c1nc2ccccc2[nH]1	1.02	i	-23.3%
4	COc1cccc(C2C(C(=O)OC(C)C)=C(C)Nc3ncnn32)c1 (stereo not given)	0.52	i	2.0%
5	O=C(CS(=O)c1ccc(C(F)(F)F)cc1[N+](=O)[O-])Oc1ccccc1 (stereo not given)	nt	i	5.4%
6	CCOC(=O)C1CCN(C(C(=O)Nc2ccc3c(c2)OCCO3)c2ccccc2)CC1 (stereo not given)	0.08	i	6.6%
7	CCN(CC)S(=O)(=O)c1ccc(NC(=O)Cn2c(=O)oc3ccccc32)cc1	-0.87	i	0.5%
8	NC(=O)C1CCN(C(=O)CN2CCc3ccccc32)CC1	0.36	i	2.8%
9	COc1ccc(OC)c(NC=C2C(=O)OC(C)(C)OC2=O)c1	-1.08	i	6.0%
10	C=CCOc1ccc2c(c1)c(S(=O)(=O)c1ccc(C)cc1)cn2COC	-0.85	i	5.0%
11	CC1C=CCC2C(=O)N(c3cccc(C(=O)N4CCN(c5ccc(F)cc5)CC4)c3)C(=O)C12 (stereo not given)	-0.62	i	-9.2%
12	Cc1ccc(C)c(S(=O)(=O)C(C#N)c2nc3ccccc3nc2N2CC(C)OC(C)C2)c1 (stereo not given)	0.33	i	-4.6%
13	CC1CCN(S(=O)(=O)N2CCC(C(=O)NCCN3CCOCC3)CC2)CC1	nt	i	2.5%
14	Cc1ccc(C(C)C)c(OCCn2c(=O)oc3ccccc32)c1	1.18	i	-1.0%
15	Cc1nn(CCc2nc(-c3ccco3)cs2)c2[nH]c(=O)cc(C(F)(F)F)c12	-1.18	i	-1.2%
16	CN1CCc2ccccc2C1C1CCNCC1 (stereo not given)	-0.9	i	5.5%
17	CCOc1cc(C2NC(=O)NC(C)=C2C(=O)NCc2ccccc2)c(Cl)cc1O (stereo not given)	nt	i	-1.9%
18	COC(=O)c1cc(OC)c(OCc2cc(C(=O)OC)oc2C)c(OC)c1	-0.8	i	1.4%
19	C(=N\n1cnnc1)/c1cccnc1	0.71	i	5.8%
20	c1ccc(CSc2nnc3c(n2)OC(c2ccco2)Nc2ccccc2-3)cc1 (stereo not given)	-0.57	i	0.9%
21	Cc1nn(C)cc1CNC(=O)c1cccc(Cl)c1	nt	i	-2.1%
22	CCOc1ccccc1N1CCN(C(=O)c2cc(C)oc2C)CC1	-0.84	i	2.3%
23	CCCCC(C)n1[nH]c(=O)cc1N (stereo not given)	nt	i	0.5%
24	CC(Sc1nncs1)C(=O)NCc1ccc2c(c1)OCO2 (stereo not given)	-0.98	i	0.9%
25	CN(CC(=O)Nc1ccccc1N1CCOCC1)S(=O)(=O)c1ccc(Cl)cc1	nt	i	0.5%
26	CCOC(=O)c1c(C)c(C(=O)NCc2cccs2)c(C)n1CC	0.29	i	0.3%
27	O=C(CSc1nnc(-c2ccccc2Cl)o1)N1CCCCC1	0.19	i	1.0%
28	O=C(c1ccc(Cl)cc1)N1CCC(c2nc(-c3cccs3)no2)CC1	-0.46	i	1.3%
29	CCCc1c(OCCCCc2nn[nH]n2)ccc(C(C)=O)c1O	-0.27	i	1.0%
30	Cc1cc(C)c(C#N)c(SCc2[nH]nc3c2C(c2ccccc2)C(C#N)=C(N)O3)n1 (stereo not given)	-0.17	i	2.3%
31	COc1ccc(CCN(Cc2nc3ccccc3c(=O)[nH]2)C(=O)c2ccco2)cc1OC	-0.66	i	0.2%
32	O=S(=O)(Nc1cccc2ccccc12)N1CCCC1	0.94	i	-3.0%
33	Cc1cc(C(=O)NCc2cc(C(=O)O)oc2C)c(C)o1	-1.52	i	-2.7%
34	COC(=O)C1=C(C)N(c2ccc(F)cc2)C(=O)C1	1.12	i	5.2%
35	CCC(C)Nc1nc(-c2ccc3c(c2)NC(=O)CO3)cs1 (stereo not given)	nt	i	1.9%
36	Cc1noc(N)c1C(=O)Nc1ccc(F)c(Cl)c1	0.35	i	-7.0%
37	COc1ccc(OCC(=O)NCc2cccnc2)cc1	2.36	i	0.7%
38	COc1ccc(CCn2c(N3CCN(C)CC3)nc3c2c(=O)[nH]c(=O)n3C)cc1	-0.51	i	-5.5%
39	CN(C)c1oc(-c2ccco2)nc1C#N	0.36	i	1.6%
40	COc1ccc(C(N)=O)cc1NC(=O)CC(O)(C(F)(F)F)C(F)(F)F	-0.23	i	3.6%
41	C#CCSc1nnc(-c2ccccc2)c(=O)[nH]1	0.46	i	-7.4%
42	CCNc1nc2ccccc2[nH]1	nt	i	-1.2%
43	COc1cc(C(=O)Oc2ccc3c(c2)OCC3=O)cc(OC)c1OC	nt	i	-2.1%
44	O=C(CSCCO)Nc1ccccc1	nt	i	2.4%
45	CC(C)CCNC(=O)CCS(=O)(=O)c1cccc2nonc12	2.64	i	-11.6%
46	O=S(=O)(NCCSc1ccccc1)c1ccc(F)cc1	-0.21	i	7.8%
47	O=CNC(=O)c1ccccc1C(=O)O	0.55	i	-2.3%
48	COCCNC(=O)C(c1ccco1)N(C(=O)Cn1nnc2ccccc21)c1ccccc1C (stereo not given)	0.32	i	7.2%
49	CCCCNC(=O)Nc1c(C(=O)OC)[nH]c2ccc(C)cc12	nt	i	3.6%
50	COC(=O)Nc1nc2ccc(C(=O)c3ccccc3)cc2[nH]1	-0.01	i	2.0%
51	Cc1ccc(S(=O)(=O)NCCSc2nnc(N)s2)cc1	-0.11	i	3.5%
52	CCOC(=O)CNC(=O)Cn1cnc2ccc(S(=O)(=O)N3CCC(C)CC3)cc2c1=O	1.44	i	-3.0%
53	CCOC(=O)Cc1csc(NC(=O)CN2C(=O)c3ccccc3S2(=O)=O)n1	-0.98	i	-3.3%
54	Cc1cccc(NC(=O)CCn2ccnc2C)c1	0.42	i	5.2%
55	COc1ccc(CCN(Cc2cc3cc(C)ccc3[nH]c2=O)C(=O)N2CCCC2)cc1OC	-0.71	i	-3.7%
56	O=C(NC1(C(F)(F)F)NC(=O)N(Cc2ccco2)C1=O)c1cccnc1 (stereo not given)	0.15	i	-5.3%
57	COc1ccc(/C=N/NC(=O)CCc2c(C)n[nH]c2C)cc1OC	nt	i	2.6%
58	Cc1nnc(SCCn2c(N3CCCC(C)C3)nc3c2c(=O)n(C)c(=O)n3C)s1 (stereo not given)	1.23	i	3.1%
59	O=C(COc1ncnc2scc(-c3ccc(F)cc3)c12)NCc1ccco1	nt	i	-5.7%
60	CCN(CC)Cc1cc2ccccc2c2c1COC2	-0.79	i	-0.6%

# Carrying on:
item	compound	WNV NS2B-NS3 inh	MT1-MMP promoter	Hsc70
61	COC(=O)/C(=C/Nc1ccc(O)cc1)[N+](=O)[O-]	nt	i	1.5%
62	COc1cccc(NC(=O)N2CCCC(C(=O)NCc3ccc(F)cc3)C2)c1 (stereo not given)	nt	i	5.6%
63	c1ccc2oc(SCc3cn4ccsc4n3)nc2c1	-0.8	i	-2.9%
64	C=CCn1c(N)c(C(=O)NCC2CCCO2)sc1=S (stereo not given)	0.2	i	0.5%
65	Cc1ccc(C)c(C(=O)Cn2ncc(Cl)c(Cl)c2=O)c1	nt	i	-13.6%
66	COc1ccccc1CCn1cnc2c3cc(C)ccc3n(C)c2c1=O	-0.56	i	-0.3%
67	Cc1ccc(S(=O)(=O)NC(CC(=O)NC2CCCC2)c2ccco2)cc1 (stereo not given)	0.08	i	5.3%
68	COc1cccc(C(=O)Oc2cc(-c3ccccc3)no2)c1	nt	i	-1.3%
69	CCc1c(C)nc2ncnn2c1N1CCC(C(=O)Nc2cccc(C(C)=O)c2)CC1	0.74	i	-0.6%
70	CCCC(=O)NCCCc1nc2ccccc2n1CC	-1.57	i	1.6%
71	CC(CCC(=O)Nc1nncs1)C(=O)O (stereo not given)	-0.56	i	5.0%
72	Cc1ccc(-c2nnn(CC(=O)Nc3cccc4c3CCCC4)n2)o1	1.45	i	-4.9%
73	CC(C)CSc1nc2c(c(=O)[nH]c(=O)n2C)n1CC(O)COc1cccc2ccccc12 (stereo not given)	-0.88	i	1.9%
74	O=C(CSc1nc2ccc(S(=O)(=O)N3CCOCC3)cc2[nH]1)N1CCOCC1	-0.46	i	4.1%
75	COCCN(CC(=O)NCc1ccc(OC)cc1)C(=O)CCC(=O)Nc1nccs1	0.36	i	-3.3%
76	Cc1cccc(NC(=O)Cn2c(=O)n(CCC(=O)NC3CCCC3)c(=O)c3ccccc32)c1	nt	i	7.3%
77	CCOC(=O)c1c(NC(=O)c2nn(CC)cc2Br)sc2c1CCCCC2	0.66	i	7.9%
78	COc1ccc(/C(O)=C2/C(=O)C(=O)N(CCN(C)C)C2c2ccccn2)cc1OC (stereo not given)	-0.32	i	-4.7%
79	Cc1cc(C(=O)NC(C)C)on1	-0.82	i	2.3%
80	COc1ccc(OC)c(NC(=O)CSc2nnc(C)n2Cc2ccccc2)c1	-0.68	i	3.9%
81	CCC(=O)N(CC)c1nc(-c2cc(OC)ccc2OC)cs1	nt	i	-4.6%
82	Cc1cc(C)c2c(n1)nn1c(NCCCN3CCOCC3)cc(C)nc21	1.14	i	-1.2%
83	CCOc1ccc(CNC(=O)C(CC)n2nc(C)n3c(cc4occc43)c2=O)cc1OC (stereo not given)	0.16	i	-2.0%
84	CC1(C)CC(=O)C2=C(C1)Nc1ccccc1NC2c1nc2ccccc2[nH]1 (stereo not given)	-1	i	2.8%
85	O=C(COC(=O)CNC(=O)c1ccc(Br)o1)Nc1ccc2c(c1)OCCO2	0.28	i	10.6%
86	Cc1ccc(S(=O)(=O)N2CN(Cc3ccco3)c3nc4ccccc4nc32)cc1C	nt	i	-4.2%
87	C=CCn1c(SCC(=O)N2CCOCC2)nc2scc(-c3ccco3)c2c1=O	-1.54	i	-2.2%
88	Cc1ccc(-c2nn3c(C)nnc3c3ccccc23)cc1S(=O)(=O)NC(C)c1ccccc1 (stereo not given)	nt	i	0.3%
89	CCOC(=O)CCCNC(=O)COC(=O)c1cccc(C)c1O	-0.83	i	-3.3%
90	Cc1nc2c(n1O)CCC/C2=N\O	-0.38	i	3.6%
91	Cc1cnc(C)c(N2CCC(C(=O)NCc3ccco3)CC2)n1	-0.52	i	0.4%
92	CC(=O)Nc1cccc(C(=O)OCc2ccccc2)c1	-0.58	i	-4.6%
93	Cc1ccc(C(c2nnnn2C2CCCC2)N2CCN3CCCC3C2)cc1 (stereo not given)	nt	i	-0.2%
94	CCc1nnc(NC(=O)CSc2nnc(COc3ccc(C#N)cc3)n2-c2ccccc2)s1	-0.96	i	0.9%
95	c1ccc2c(c1)CCCN2Cc1nnnn1CC1CCCO1 (stereo not given)	0.96	i	26.2%
96	CC(C)Oc1ccc(C2CC(=O)N(c3cccc(C(=O)O)c3)C2=O)cc1 (stereo not given)	-0.23	i	7.2%
97	CCC(c1nnnn1Cc1ccc(F)cc1)N(CCCO)Cc1cc2cc3c(cc2[nH]c1=O)OCO3 (stereo not given)	-2.51	i	-0.1%
98	Cc1nnc(SCc2cc(=O)[nH]c(N3CCN(Cc4ccccc4)CC3)n2)s1	-0.52	i	-5.9%
99	CN(C)c1ccc(NC(=O)CC2NCCNC2=O)cc1 (stereo not given)	-0.05	i	-3.1%
100	Oc1ccc(-c2nc(-c3ccc(O)c(O)c3)cs2)cc1	1.38	i	-4.6%

# Entries of single compounds from above. Screens in order: WNV NS2B-NS3 inh | MT1-MMP promoter | Hsc70
# Profile of O=C(COC(=O)CNC(=O)c1ccc(Br)o1)Nc1ccc2c(c1)OCCO2 = 0.28 | i | 10.6%
# Profile of Cc1cc(C)c2c(n1)nn1c(NCCCN3CCOCC3)cc(C)nc21 = 1.14 | i | -1.2%

# Next section:
item	compound	WNV NS2B-NS3 inh	MT1-MMP promoter	Hsc70
101	CN1CCN(CCCNC(=O)c2nnc(Cc3c(F)cccc3Cl)o2)CC1	nt	i	1.2%
102	O=S(=O)(NCc1cccnc1)c1ccc2c(c1)OCCO2	nt	i	-4.4%
103	CCS(=O)(=O)N1CCN(C(=O)CC(C)C)CC1	1.38	i	0.8%
104	COc1cccc(OC)c1C(=O)Nc1ccc(CN2CCCCC2)cc1	-0.35	i	2.0%
105	CC(=O)N(C(C)=O)c1ccc2nc(C)[nH]c(=O)c2c1	0.66	i	-5.1%
106	COc1cccc(NS(=O)(=O)c2cc(C)sc2C)c1	0.48	i	-1.4%
107	NC1=CC(=O)c2cccc3cccc1c23	-0.84	i	115.9%
108	COc1ccc(C2NCCn3cccc32)cc1 (stereo not given)	nt	i	-5.1%

# Rewritten as labelled records: part of the list above
106	COc1cccc(NS(=O)(=O)c2cc(C)sc2C)c1
- WNV NS2B-NS3 inh: 0.48
- MT1-MMP promoter: i
- Hsc70: -1.4%

103	CCS(=O)(=O)N1CCN(C(=O)CC(C)C)CC1
- WNV NS2B-NS3 inh: 1.38
- MT1-MMP promoter: i
- Hsc70: 0.8%

101	CN1CCN(CCCNC(=O)c2nnc(Cc3c(F)cccc3Cl)o2)CC1
- WNV NS2B-NS3 inh: nt
- MT1-MMP promoter: i
- Hsc70: 1.2%

# Assay outcomes deposited in PubChem by several laboratories.
